Source: PubChem BioAssay
Anthrax LT inh – qHTS Assay for Anthrax Lethal Toxin Internalization. Cells, anthrax lethal toxin internalization, FRET ratio (460/530). Potency, µM (highest dose often 40 µM), for the others: at the top dose activity change, negative = inhibition, actives largely listed as inhibitors. 70,000 tested, 0.67% active. AID 912, 2007; active = well fitted falling ratio curve with the 530 nm signal flat; inconclusive = other ratio curves, or a change in one channel alone; inactive = flat curves in the ratio and both channels; the % refers to the ratio; also: % is scaled to controls: 0 for no effect and ±100 for the full control effect; nearly all actives have a fitted effect of over 50% in size; tested in ME-180 cells; beta-lactamase reporter
SmPrx2 inh – Schistosoma Mansoni Peroxiredoxins (Prx2). Schistosoma mansoni peroxiredoxin 2 (Prx2). S. mansoni Prx2 activity coupled to TGR/GSH (TGR is thioredoxin glutathione reductase), NADPH fluorescence loss, qHTS; some inactives read as strong as hits. Potency, µM. 65,000 tested, 0.07% active; active means full or partial inhibition curve with a strong effect at the top dose; inconclusive means weaker partial or single-point curve; inactive means no accepted curve; also: series up to 57 µM; many of its hits are not listed in these tables
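Prx2 activity was followed as the loss of NADPH fluorescence (ex 365/em 450 nm), read every 30 sec for 8 min after H2O2 start. The enzyme mix (50 nM Prx2, 25 nM TGR, GSH, NADPH; pH 7.4 phosphate buffer) was incubated with compound for 15 min at room temperature first.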
An asterisk follows results filed as active; ? = inconclusive; . = not tested or not shown; & = joins results of further samples; [ ] = another dose, or the depositor's remark. Potency is read from the fitted curve at half-maximal effect.

SMILES | Anthrax LT inh | SmPrx2 inh
CN1CCN(c2ncc3nc(-c4cc(F)cc(F)c4)c(=O)n(Cc4cccs4)c3n2)CC1 | ? | >57
N[C@@H](Cc1ccnnc1)C(=O)O | 7%[8 µM] | >57
CC(=O)N1CCC2(CC1)CCN(C(c1ccccc1)c1ccccc1)CC2 | 1% | >57
Cc1cc(C(=O)COc2ncnc3sccc23)c(C)n1C | -22% | >57
CN(CC(=O)NCCN1CCN(Cc2ccccc2)CC1)S(=O)(=O)c1cccc2nsnc12 | -15% | >57
CCCCCn1c(Sc2nc3ccccc3s2)nc2c1c(=O)[nH]c(=O)n2C | ? | >57
CN(CCO)C(=O)c1cccc2c1-c1ccccc1C2=O | 6% | >57
CCCCOc1ccc(S(=O)(=O)Nc2cc(OC)ccc2OC)cc1 | ? | .
CC1=CC(C)(C)N(C(=O)CN2C(=O)c3ccccc3C2=O)c2ccccc21 | 6.3µM* | .
CCOC(=O)c1cc2c(ccn2-c2ccc(F)cc2)n1CC(=O)N1CCN(C(=O)c2ccco2)CC1 | -4% | >57

Continued; it opens with the three that closed the last part.
SMILES | Anthrax LT inh | SmPrx2 inh
CCCCOc1ccc(S(=O)(=O)Nc2cc(OC)ccc2OC)cc1 | ? | .
CC1=CC(C)(C)N(C(=O)CN2C(=O)c3ccccc3C2=O)c2ccccc21 | 6.3µM* | .
CCOC(=O)c1cc2c(ccn2-c2ccc(F)cc2)n1CC(=O)N1CCN(C(=O)c2ccco2)CC1 | -4% | >57
CC1CC(C)CN(S(=O)(=O)c2ccc(C(=O)NCCCn3ccnc3)cc2)C1 (centres undefined) | 1% | >57
C=CCN1C(=O)C(O)(CC(=O)c2ccc(Cl)cc2)c2ccccc21 (centres undefined) | -6% | .
CN1CCC(N(C)CC(=O)Nc2cccc(Oc3ccccc3)c2)CC1 | ? | >57
O=C(CSc1nnc(Nc2ccccc2)s1)NCc1ccco1 | -2% | >57
CC(C)(C)c1ccc(S(=O)(=O)NCCOCC(F)(F)C(F)F)cc1 | 5% | >57
CC(C)CCCNc1nc(N2CCOCC2)nc(N2CCOCC2)n1 | -4% | >57
Cc1nc2ccccc2c(=O)n1C1CCCCCC1 | -11% | >57
COCCNC(=O)Cn1ncc2ccsc2c1=O | ? | >57
Cc1ccccc1C(=O)Nc1c(C(=O)N2CCCC2)cnn1-c1ccccc1 | 9% | >57
O=C(NCCCNC1CCCCC1)c1ccc(/C=N/O)nc1 | 6% | >57
CCOc1nc(C#N)nc(N2CCCCC2)n1 | 18% | >57
CC(=O)NCCc1csc(-c2ccccc2)n1 | 5% | >57
CCOC(=O)N1CCN(C(=O)c2csc3c2CCCCC3)CC1 | -1% | >57
Cc1cccc(Cn2c(=O)c3c(nc4n3CCCN4Cc3ccccc3)n(C)c2=O)c1 | . | >57
CC1CCN(S(=O)(=O)c2cc(Br)cc(C(=O)NC3=NCCS3)c2)CC1 | . | >57
CCOc1ccc(C2C(C#N)=C(N)Oc3cc(C)n(CCN(C)C)c(=O)c32)cc1OCC (centres undefined) | -4% | >57
COc1ccc(-c2nnn(CC(=O)N(Cc3cccs3)C(C)C(=O)NC3CCCC3)n2)cc1OC (centres undefined) | 4% | >57
O=C(CSc1nnc(-c2ccc(Cl)cc2)n1Cc1ccco1)Nc1ccc2c(c1)OCCO2 | ? | >57
CCC(c1nnnn1CCc1ccccc1)N(Cc1ccco1)Cc1cc2c(C)ccc(C)c2[nH]c1=O (centres undefined) | -11% | >57
O=S(=O)(c1ccc2ccccc2c1)N1CCCCC1 | ? | >57
Cc1o[nH]c(=O)c1C[C@H](N)C(=O)O | 0%&-6%&-5%&-8% | >57&>57&>57&>57
c1nc(NCCN2CCOCC2)c2cc(-c3ccc4c(c3)OCO4)ccc2n1 | -1% | >57
O=C(Nc1ccccc1)c1cccnc1N1CCOCC1 | 0% | >57
COc1ccc(-c2oc3cc(OC)ccc3c2C(=O)c2ccc(C#N)cc2)cc1 | 47% | .
CCN(Cc1cc2ccccc2[nH]c1=O)S(=O)(=O)c1ccccc1 | 0% | >57
COc1ccc(-c2nc3cnc(N4CCNCC4)nc3n(C3CC3)c2=O)cc1 | ? | >57
CC1CCN(CCCNC(=O)CN2CCN(Cc3ccc(Cl)cc3)C2=O)CC1 | -14% | >57
Cc1cc(CNC(=O)Nc2ccc3c(c2)OCO3)nn1C | 1% | >57
Cn1c(SCC(=O)OC2CCCCC2)nnc1-c1ccc(S(=O)(=O)N2CCCC2)cc1 | 11% | >57
Oc1ccc(N2CCN(C(c3ccncc3)c3nnnn3C3CCCC3)CC2)cc1 (centres undefined) | ? | >57
COc1cc2c(cc1OC)C(C(=O)N1CCOCC1)C(c1cccs1)N(C)C2=O (centres undefined) | 10% | >57
COC(=O)CSc1nc2c(c(-c3ccc(C)o3)c1C#N)CCCC2 | ? | >57
COc1cccc2[nH]c3c(N4CCC(C(N)=O)CC4)ncnc3c12 | -19% | >57
Cc1ccc(C(c2nnnn2Cc2cccs2)N2CCN(Cc3ccc4c(c3)OCO4)CC2)cc1 (centres undefined) | -15% | >57
CCCc1nnc(SCC(=O)N2CCOCC2)n1CCCOC | -14% | >57
CC1(C(=O)N(CC(=O)NC2CCCC2)C2CCCC2)CC(=O)N=C2C=CC=CN21 (centres undefined) | 2% | >57
CCN1/C(=C\C(C)=O)Sc2ccc(OC)cc21 | -1% | >57
O=C(O)CN1C(=O)c2cccc(Oc3ccc(Cl)cc3)c2C1=O | 0% | >57
Cn1c(C(=O)N2CCc3ccccc3C2)cc2c(=O)n3ccccc3nc21 | ? | >57
OC1C=CSc2nc3ccccc3n21 (centres undefined) | -9% | >57
Cc1ccc(NC(=O)NC(=O)CN2C(=O)NC3(CCCCCCC3)C2=O)c(C)c1 | ? | >57
CCn1c(CNc2ccc(Cl)cc2)nnc1SCC(=O)NCc1ccccc1 | -1% | >57
N#CCSc1nnc(C2CCCCC2)n1-c1ccccc1 | -9% | >57
O=C1c2ccccc2-c2ccc(N(Cc3ccc(Br)cc3)Cc3ccc(Br)cc3)cc21 | ? | >57
CSc1nc2nc(C)cc(-c3ccccc3)n2n1 | 5% | >57
Cc1nn2c(-c3cccc(NC(=O)CN4CCOCC4)c3)nnc2c2ccccc12 | -10% | >57
NC(=O)c1c(NC(=O)CN2C(=O)CCC2=O)sc2c1CCCCC2 | 4% | >57
Cc1ccccc1-c1noc(N)c1C#N | -10% | >57
CCCn1c(C)nc2c(NCCCCN3CCCC3)nc(C)nc21 | -12% | .
Cn1c(Cn2nnc3ccccc32)nnc1SCC(=O)c1ccc(F)cc1 | 10% | >57

Another view of some results above:
structure: N#CCSc1nnc(C2CCCCC2)n1-c1ccccc1
  Anthrax LT inh: -9%
  SmPrx2 inh: >57

structure: Cc1ccc(NC(=O)NC(=O)CN2C(=O)NC3(CCCCCCC3)C2=O)c(C)c1
  Anthrax LT inh: ?
  SmPrx2 inh: >57

structure: Cn1c(Cn2nnc3ccccc32)nnc1SCC(=O)c1ccc(F)cc1
  Anthrax LT inh: 10%
  SmPrx2 inh: >57

structure: O=C1c2ccccc2-c2ccc(N(Cc3ccc(Br)cc3)Cc3ccc(Br)cc3)cc21
  Anthrax LT inh: ?
  SmPrx2 inh: >57

Four entries out of the list, sorted by SMILES length, high to low.
SMILES | Anthrax LT inh | SmPrx2 inh
Cc1ccc(NC(=O)NC(=O)CN2C(=O)NC3(CCCCCCC3)C2=O)c(C)c1 | ? | >57
Cc1nn2c(-c3cccc(NC(=O)CN4CCOCC4)c3)nnc2c2ccccc12 | -10% | >57
CCn1c(CNc2ccc(Cl)cc2)nnc1SCC(=O)NCc1ccccc1 | -1% | >57
N#CCSc1nnc(C2CCCCC2)n1-c1ccccc1 | -9% | >57

Additional results.
SMILES | Anthrax LT inh | SmPrx2 inh
C[C@@H](C(=O)Nc1ccc2ccccc2c1)[C@@H]1C[C@@]1(C)[C@@H](NC(=O)Oc1ccc(F)cc1)c1ccccc1 | ? | >57
Oc1c(C(c2cccc(F)c2)N2CCN(Cc3ccccc3)CC2)sc2ncnn12 (centres undefined) | -6% | >57
COc1cccc(N(C(=O)Cn2nnc3ccccc32)C(C(=O)NCc2ccco2)c2cccnc2)c1 (centres undefined) | -19% | >57
CCOC(=O)c1cccc([P+](=O)O)c1 | . | >57
O=[N+]([O-])c1ccc2c(N=Nc3ccc4ccccc4c3O)c(O)cc(S(=O)(=O)O)c2c1 | ? | >57
CCOc1ccc(OCC)c(NC(=O)CN2CCN(c3cccc(C)c3)CC2)c1 | ? | >57
CC(C)(c1cc(Br)c(OCC(Br)CBr)c(Br)c1)c1cc(Br)c(OCC(Br)CBr)c(Br)c1 (centres undefined) | 2% | .
CC(C)(C)Nc1nc(C(N)=O)nc(N2CCOCC2)n1 | -23% | >57
c1ccc2c(c1)nnn2Cc1nnc2sc(-c3ccc4c(c3)OCCO4)nn12 | 1% | >57
COc1ccc(CNC(=O)CSc2ncnc3nc[nH]c23)cc1 | -3% | >57
COCCn1c(COc2ccc(Cl)cc2)nnc1SCC(N)=O | -2% | >57
Cn1c(=O)c2cn(Cc3ccc(Cl)cc3)cc2n(C)c1=O | -6% | >57
Cc1coc(C)c1C(=O)CC1(O)C(=O)N(CCc2ccccc2)c2ccccc21 (centres undefined) | -15% | .
CCNc1nc(NC(C)C)nc(NS(=O)(=O)c2ccc(Cl)cc2)n1 | ? | >57
CCN(CC)S(=O)(=O)c1ccc2c(c1)c(=O)c(C(=O)NCCOC)cn2C | 22% | >57
CCOC(=O)C1=C(N)N(c2ccc(N3CCCCC3)cc2)C(=O)C1 | -13% | >57
Cc1ccc(C)c(-n2c(SCC(N)=O)nnc2-c2ccccn2)c1 | -13% | >57
COc1ccccc1NC(=O)CNC(=O)c1ccc(F)cc1 | 3% | >57
COCCn1c(=O)c(-c2ccccc2)nc2cnc(N3CCNCC3)nc21 | ? | >57
O=C(Nc1ccccc1C(=O)N1CCOCC1)c1ccncc1 | -3% | .
COc1cc(C(=O)Oc2c(CN3CCOCC3)cc(Cl)c3cccnc23)cc(OC)c1OC | 19% | >57
COc1cccc(C2=NOC(C(=O)NCc3ccccc3)C2)c1 (centres undefined) | -28% | >57
c1ccc(CN2C3=NCCCN3c3ccccc32)cc1 | 6% | >57
Cc1cccc(NC(=O)C2CCN(S(=O)(=O)c3cccs3)CC2)n1 | 3% | >57
Cn1c(SCc2ccc(F)cc2)nnc1-c1cccs1 | -2% | >57
COc1ccc(C)cc1NC(=O)C1CCCN1S(=O)(=O)c1ccc2c(c1)CCC(=O)N2 (centres undefined) | ? | >57
Cc1occc1C(=O)Nc1nn[nH]n1 | -1% | >57
NC(=O)c1cccc(S(=O)(=O)N2CC(c3ccccc3)CC2=O)c1 (centres undefined) | -13% | >57
Clc1ccc(C(Cl)(Cl)Cl)cc1Cl | -19% | .
COc1ccccc1Nc1nc(N)nc(CN2CCOCC2)n1 | -3% | >57
COc1ccc(C2C3=C(CC(C)(C)CC3=O)Nc3c2c(=O)[nH]c(=O)n3Cc2ccccc2)cc1OC (centres undefined) | ? | >57
Cn1c(=O)c2c(nc(-n3ccnc3)n2Cc2ccc(Cl)cc2Cl)n(C)c1=O | -1% | .
CCCCn1nc(CC(=O)O)c2ccccc2c1=O | ? | >57
COc1nc(C#N)c(N2CCOCC2)o1 | 3% | >57
CCCCCCOc1ccc(OCC(O)CN2C(=O)NC(C)(C)C2=O)cc1 (centres undefined) | -11% | >57
CN(C(=O)c1ccncc1)C1CC(C)(C)N(O)C(C)(C)C1 | 11% | >57
CC1CCCCC12NC(=O)N(Cn1nnc3ccccc3c1=O)C2=O (centres undefined) | 10% | >57
Cc1[nH]c2ccccc2c1-c1cc(-c2cc(-c3c(C)[nH]c4ccccc34)on2)no1 | 0%[8 µM] | >57
Cc1ccccc1 | ? | .
O=C(NC1CCCCC1)c1ccc(Cn2cc(Br)cn2)o1 | 3% | >57
Cc1ccnc(SCCn2c(N3CCC(C)CC3)nc3c2c(=O)n(C)c(=O)n3C)n1 | 4% | >57
O=c1c2ccccc2nnn1CSc1nnc(Nc2ccccc2)s1 | -10% | >57
CCCNC(=O)c1cc(SC)ccc1Cl | 17% | >57
Cc1ccc(C)c(NC(=O)CN(C)S(=O)(=O)c2ccc(F)cc2)c1 | -6% | >57
CCC(Sc1nncn1C)C(=O)Nc1nnc(-c2ccc(Cl)cc2)s1 (centres undefined) | -10% | >57
CCC(=O)Nn1c(C)nnc1C | . | >57
Cc1ccc2c(c1)N(CC(=O)N1CCCCCC1)C(=O)CO2 | -11% | >57
CC1CCC2(CC1)NC(=O)N(Cc1nc(-c3ccccc3)no1)C2=O (centres undefined) | 3% | >57
COc1cccc(NC(=O)n2nc(N)cc2-c2ccc(Cl)cc2)c1 | ? | >57
Oc1ccc(N=Cc2ccc(O)c(O)c2)cc1 | ? | .
Additional entries.
SMILES | Anthrax LT inh | SmPrx2 inh
COc1ccc(C(=O)OCCN2CCOCC2)cc1OC | -4% | >57
Cc1[nH]c2ccc(F)cc2c(=O)c1SC(F)(F)C(F)F | 5% | >57
CCCn1c(=O)c(C(=O)NCc2cccnc2)c(O)c2ccccc21 | -8% | .
Cc1nc(C)n(C(C)CC(=O)O)n1 (centres undefined) | -14% | >57
Cc1ccc2c(CNCc3ccco3)cc(=O)oc2c1 | ? | >57
C=CCN1CCN(C(CC(C)C)c2nnnn2CCOC)CC1 (centres undefined) | 6% | >57
COc1cccc(C(=O)n2cnnc2N)c1OC | 4% | >57
COC(=O)COc1cccc(-n2cnnn2)c1 | 8% | >57
O=C(CSc1nn(-c2ccc(Cl)cc2)c(=S)s1)N1CCN(C(=O)c2ccco2)CC1 | -16% | >57

A portion of the library; rates above refer to the full screens.
